Vaccinia Venus: vaccinia inhibition (Venus reporter) | AID 720580 | 0.46% of 330,000 active | Vaccinia virus Venus reporter expression, fluorescence | Potency, µM (highest dose often 36.5 µM), for the others: at the highest dose activity change, negative = inhibition, hits mostly inhibitors; active means well fitted inhibition curve with a large enough effect; inconclusive means small, poorly fitted or top-dose-only effect; inactive means no such curve, though single readings can be large or run the other way; tested in A549 cells; further: nearly all actives have a fitted effect of over 30% in size; inactives centre near -10
Vaccinia mCherry: inhibitors of vaccinia virus infection (mCherry reporter signal). Potency, µM (highest dose often 36.5 µM), inactives show at the top dose activity change, negative = inhibition, actives largely listed as inhibitors. 0.63% of 310,000 active. Vaccinia virus mCherry reporter infection, fluorescence; about a quarter of the inactives have no number; active = well fitted inhibition curve with a large enough effect; inconclusive = small, poorly fitted or top-dose-only effect; inactive = no such curve, though single readings can be large or run the other way; tested in A549 cells; further: nearly all actives have a fitted effect of over 35% in size; inactives centre near -10
Starred values were filed as active, the others as inactive; i = inactive; ? = inconclusive; . = no result given; & = joins results of further samples; [ ] = another dose, or the depositor's remark. On the % scale 0 is the no-effect control and ±100 the full control effect; potency means the concentration at half of the fitted maximal effect.

mol	Vaccinia Venus	Vaccinia mCherry
COc1ccc(C)cc1NC(=O)C1CCCN1C(=O)OCc1ccccc1 (stereo not given)	-8.8%	.
CCOc1cc(CNCCc2c[nH]c3ccccc23)cc(Cl)c1OCC	11.2µM*	?
O=C(c1ccc2c3c(cccc13)CC2)C1CCCN(Cc2ccccn2)C1 (stereo not given)	-25.0%	-22.5%
Cc1ccc(CN2CC(C(=O)N3CCN(S(=O)(=O)c4cccc(F)c4)CC3)CC2=O)cc1 (stereo not given)	-14.6%	i
CN(C(=O)c1ccc(NC(=O)Cc2cccc(NC(=O)C3CCCN(C(=O)C4CCCCC4)C3)c2)cc1)C1CCCC1 (stereo not given)	-15.2%	i
CN(CC(=O)NCc1ccco1)S(=O)(=O)c1cccc2cccnc12	0.1%	1.9%
CC1=C(C)CC(C(=O)Nc2nccs2)C(C(=O)O)C1 (stereo not given)	-6.4%	i
CC1Cc2[nH]c(=S)[nH]c(=O)c2C(c2ccc(F)cc2)O1 (stereo not given)	6.7%	21.6%
COc1cccc2c1C(=O)C=C(C)C2=O	315.5%[activator]	9.0%
Nc1c2c(nn1-c1ccc(C(=O)O)cc1)CNC2	-4.0%	-0.3%
CC1CCN(C(=O)Cn2c(=O)n(Cc3ccco3)c(=O)c3sccc32)CC1	-14.1%	8.8%
C=CCOc1ccccc1CN1CCC(Cc2ccccc2)CC1	-14.1%	-1.3%
Cc1ccc(S(=O)(=O)/N=C(/c2ccc(F)cc2)N2CCOCC2)cc1	-2.9%	-7.6%
CCOc1ccc(S(=O)(=O)N2Cc3ccccc3CC2C(=O)O)cc1 (stereo not given)	-2.5%	-5.5%
CCN(CC)C(=O)Cn1cc(C(=O)C2CC2)c2ccccc21	-7.0%	-0.8%
COC(=O)C1=C(c2ccc(F)cc2OCc2ccccc2)C[C@@H]2CC[C@H]1N2C(=O)NCc1ccco1	-18.7%	?
O=C(NCc1ccc(F)cc1)c1ccc(Br)o1	-6.8%	-7.9%
Cc1cc(NC(=O)CN2CCC(O)(c3cccc(F)c3)CC2)no1	-14.3%	-1.5%
S=C(Nc1ccc(Br)cc1)NC1CCN(Cc2ccccc2)CC1	?	?
CCCOC(=O)CCNc1n[nH]c(=O)[nH]c1=O	-15.9%	-4.2%
Cc1ccc2nc(SCC(=O)Nc3cccc(S(=O)(=O)N(C)C)c3)[nH]c2c1	-15.5%	-22.1%
CNc1c(C(=O)O)ccc2c1C(=O)c1ccccc1C2=O	4.9%	-10.4%
Cc1ccc(C)c(NS(=O)(=O)c2csc(C(N)=O)c2)c1	-6.3%	i
COC(=O)c1ccccc1N=Nc1c(C)noc1C	-7.6%[7.34 µM]	-16.4%[7.34 µM]
CCc1ccccc1NC(=O)CSc1nc2[nH]c(=O)cc(O)c2s1	-6.0%	-7.7%
CC(C(=O)NCc1ccccc1)n1ccc2cc(S(=O)(=O)N3CCCC3)ccc21 (stereo not given)	-6.4%	-12.5%
Cc1noc(C)c1COC(=O)c1cnc(Cl)c(Cl)c1	-10.7%	-2.5%
Cn1c(=O)oc2cc(S(=O)(=O)NCCC(=O)N3CCc4ccccc43)ccc21	-8.3%	-16.3%
CCC(C)NC(=O)CSc1nnc(-c2ccc(C(C)(C)C)cc2)n1C (stereo not given)	-8.7%	-11.1%
COc1ccc(NC(=O)CSC2=Nc3ccccc3C3=NC(CC(=O)NCc4ccc(F)cc4)C(=O)N23)cc1 (stereo not given)	-10.2%	-15.0%
O=C(Nc1ccc(C(F)(F)F)cc1)c1cnc(N2CCN(c3ccccn3)CC2)c2ccccc12	4.5%	3.9%
COc1cc(OC)c(CNC2CCCCCC2)cc1Br	-5.9%	-12.0%
Cc1ccc2c(c1)N(CC(=O)NC1CCCC1)C(=O)C(C)O2 (stereo not given)	-7.1%	i
CN(C(=O)CSc1nnc(-c2ccc(Cl)cc2)n1CC1CCCO1)C1CCS(=O)(=O)C1 (stereo not given)	-11.1%	-13.0%
COC(=O)[C@]12CCCCC=C1N(Cc1ccccc1)C(=O)[C@H](CC(=O)NCC13CC4CC(CC(C4)C1)C3)C2	-7.1%	-3.4%
CC1CCCN(CCC(=O)Nc2ccc(Br)cc2)C1 (stereo not given)	-12.3%	i
COc1ccc(N2CCN(C(c3ccccc3)c3sc4nc(-c5ccco5)nn4c3O)CC2)cc1 (stereo not given)	-12.2%	-16.0%
CC(=O)Nc1cc(C(=O)NCc2ccc(F)cc2Cl)ccc1Sc1ccc(Cl)cc1	-6.9%	-11.0%
Cc1ccc(C(=O)OCC(=O)Nc2cccc(Br)c2)s1	-15.7%	i
Cc1cccc(N2C(=O)CSC23C(=O)N(CC(=O)NCc2ccccc2Cl)c2ccccc23)c1 (stereo not given)	-7.2%	-17.8%
CCOC(=O)c1cc2c(=O)n3ccccc3nc2n(Cc2ccco2)c1=NC(=O)c1ccc(OC)cc1OC	-7.9%	-1.6%
COc1ccc(/C=N/n2c(=O)[nH]c3c([nH]c4ccc(Cl)cc43)c2=O)cc1CN1CCCCC1	-2.9%	-5.1%
O=C(NC1CCCC1)C1CCCN(S(=O)(=O)c2ccc(F)cc2)C1 (stereo not given)	-3.6%	17.8%
COc1ccc(C(=O)NCCCC2CCCC2)cc1OC1CCN(C(C)C)CC1	-13.3%	-4.1%
CC(OC(=O)c1snc(C(=O)NC2CCCCC2)c1N)C(=O)NC(C)(C)C (stereo not given)	-10.9%	-23.8%
CNC[C@H]1Oc2c(NC(=O)C3CCCCC3)cccc2C(=O)N([C@H](C)CO)C[C@@H]1C	-10.6%	-6.3%
Cc1ccc(CN2CCCn3nc(C(=O)NCc4ccc(N(C)C)cc4)cc3C2=O)cc1	-22.1%	-9.8%
O=C(Nc1ccc(Br)cc1F)N1CCC2(CC1)Oc1ccccc1C(=O)N2Cc1ccccc1F	-8.8%	-18.0%
CC(C)CN(C(=O)Cn1c(=O)cnc2ccccc21)C1CCS(=O)(=O)C1 (stereo not given)	-10.1%	i
COc1ccc(CC2C(=O)Nc3ccc(Br)cc32)cc1OC (stereo not given)	-13.9%	-6.3%
CCOC(=O)/C=C1\Nc2ccccc2OC1=O	-18.9%	-24.5%
Cn1c(=O)c2c(SCC(=O)N3CCOCC3)nc(-c3ccccc3F)nc2n(C)c1=O	-7.6%	-12.1%
Cn1c(=O)cc(OCC(=O)N2CCN(c3ccccc3)CC2)c2ccccc21	-5.1%	2.7%
CC1CCC(NC(=O)CSc2nncn2C)CC1 (stereo not given)	-4.5%	i
O=C(C[C@@H]1C/C=C\C[C@H](Cc2ccc(F)cc2)C(=O)OCCNC1=O)N[C@H](CO)Cc1ccccc1	?	-13.1%
CCOP(=O)(c1ccccc1)c1nc(-c2ccccc2C)oc1N1CCCCC1 (stereo not given)	?	.
O=S(=O)(c1ccccc1)c1nc(NC2CC2)sc1Cl	-7.2%	-15.7%
CC(CCCCC(=O)Nc1ccc(C(F)(F)F)cc1)NCCc1cnc[nH]1 (stereo not given)	-16.8%	-16.0%
O=C1CC(NCC2CCCO2)C(=O)N1c1ccc(F)cc1 (stereo not given)	-6.3%	i
FC(F)(F)c1ccc(/C=N/N2CCN(Cc3ccccc3)CC2)cc1	-9.5%	-15.5%

Random excerpt: 3 entries already listed, in no set order.
mol	Vaccinia Venus	Vaccinia mCherry
CNc1c(C(=O)O)ccc2c1C(=O)c1ccccc1C2=O	4.9%	-10.4%
CC(OC(=O)c1snc(C(=O)NC2CCCCC2)c1N)C(=O)NC(C)(C)C (stereo not given)	-10.9%	-23.8%
FC(F)(F)c1ccc(/C=N/N2CCN(Cc3ccccc3)CC2)cc1	-9.5%	-15.5%

(further entries)
mol	Vaccinia Venus	Vaccinia mCherry
CN(CC(=O)NCCc1ccc(F)cc1)Cc1cccs1	-7.7%	-8.7%
CC(=O)c1ccc(OCC(O)CN2CCN(S(=O)(=O)c3c(C)c(C)cc(C)c3C)CC2)cc1 (stereo not given)	-25.4%	-14.1%
CN1OC[C@@H]2CN(C(=O)CCc3ccccc3)[C@H](c3ccc(-n4ccnc4)cc3)C[C@@H]21	-8.3%	12.1%
COc1ccc(N2CCN(S(=O)(=O)CCNC(=O)c3ccc4c(c3)OCO4)CC2)cc1	-7.9%	i
CC(C)C(C(=O)Nc1ccc(S(N)(=O)=O)cc1)N1C(=O)c2ccccc2C1=O (stereo not given)	2.1%	-10.9%
O=C(N/N=C/c1ccc(O)c(O)c1)C1c2ccccc2Oc2ccccc21	0.3%	.
CCOC(=O)C1=C(C)Nc2ccccc2S1	-0.8%	-22.5%
Cc1ccc(C(=O)Nc2nnc(COc3ccccc3)s2)cc1	-11.3%	?
Cc1cccc(C(=O)NC(=S)NNC(=O)Cc2ccccc2)c1	-7.0%	-25.8%
CC(=O)c1ccc(F)c(-c2cc(C)cc3c2OC(CNC(=O)Cc2c[nH]c4ccccc24)C3)c1 (stereo not given)	10.2%	-9.5%
COc1ccc(-c2oc3ncnc(NCCCO)c3c2-c2ccc(OC)cc2)cc1	-12.1%	-8.6%
CCCn1c(CCC(=O)O)ccc1-c1ccc(OC)cc1	1.9%	-8.8%
CN(C(=O)c1cc2nc(-c3ccc4c(c3)OCO4)cc(C(F)(F)F)n2n1)c1ccc(OC(F)(F)F)cc1	-8.5%	-0.5%
CC(C)=NNC1=NC(C)(C)Cc2ccccc21	-11.6%	-8.3%
O=C(NCc1ccco1)/C(=C/c1cccc(C(F)(F)F)c1)c1nc2ccccc2[nH]1	-11.0%	-22.8%
NC(=O)CN1C(=O)C2C3c4ccccc4C(c4ccccc43)C2C1=O (stereo not given)	-24.6%	.
CC1=CC(C)(C)Nc2ccc(OC(=O)C(Cc3ccccc3)N3C(=O)c4ccccc4C3=O)cc21 (stereo not given)	-1.4%	.
Cc1c2cnn(CC(=O)NC(C)C)c(=O)c2c(C)n1Cc1ccccc1Cl	-17.2%	-10.4%
CC1CCCCN1Cc1c(O)ccc2c(=O)c(-c3ccc(Cl)cc3)coc12 (stereo not given)	-10.1%&-5.6%	-7.3%&-9.5%
Cc1ccc(CNc2ccc3cc(S(=O)(=O)N4CCCCC4)ccc3n2)cc1	-10.3%[7.34 µM]	-11.6%[7.34 µM]
O=C(CSc1nc2[nH]ncc2c(=O)[nH]1)NCCc1ccccc1	-1.5%	i
C[N+](C)(C)CCN1C(=O)c2ccccc2C1=O	7.2%	18.5%
N#Cc1cccc(N=Cc2c(O)ccc3ccccc23)c1	-19.3%	?
O=C1CC(c2ccccc2)CC(O)=C1C=Nc1ccccc1O (stereo not given)	?	?
Cc1ccc(C(=O)OCC(=O)c2ccccc2)cc1	-6.1%	-10.5%
CCn1c(SCC(=O)c2ccc(C)cc2)nnc1-c1ccoc1C	-12.6%	i
CCn1cnc2sc(C(=O)Oc3ccc(Br)cc3)c(C)c2c1=O	-5.8%	-12.9%
O=C(NCc1ccccc1Cl)C1CCC(=O)N(CC2CCCCC2)C1 (stereo not given)	-11.9%	i
CC1CCCC(NC(=O)COC(=O)/C=C/c2ccc3c(c2)OCO3)C1C (stereo not given)	-5.4%	-15.6%
O=C(O)C1CCCCC1C(=O)Nc1ccc(S(=O)(=O)N2CCCCCC2)cc1 (stereo not given)	-0.1%	-15.3%
CCC1CCC/C1=N\NC(=O)c1ccccc1Cl (stereo not given)	5.0%	-1.8%
CCSc1n[nH]c(=S)s1	-8.2%	-7.1%
CC(=O)CCc1ccc(OCCCCN2CCC(Cc3ccccc3)CC2)cc1	-8.4%	-15.9%
COc1cccc(OCc2nnc(SCC(=O)N3c4ccccc4Sc4ccc(Cl)cc43)o2)c1	-23.2%	?
COc1cccc(CN2CC(C(=O)NCCc3cn4cccnc4n3)CCC2=O)c1 (stereo not given)	5.8%	i
COc1ccc(NC(=O)c2cccc(N3C(=O)C4C5C=CC(C5)C4C3=O)c2)cc1Cl (stereo not given)	-6.9%	-9.8%
Cc1ccc(CNC(=O)Cn2c(-c3cccs3)cc3cc(Cl)ccc32)cc1	-15.2%	-24.7%
CC(C)(C)c1ccc(C(=O)NC2(C(F)(F)F)C(=O)Nc3c2c(=O)[nH]c(=O)n3-c2ccccc2)cc1 (stereo not given)	-1.2%	-4.9%
CC1=C(C#N)C(c2ccccc2)C2=C(N1)c1ccccc1C2=O (stereo not given)	-24.9%	-23.0%
COC(C(=O)Nc1ccnn1C1CCN(C(=O)c2ccc(C=O)cc2)CC1)c1ccccc1 (stereo not given)	-1.6%	-10.1%
COc1ccc(CCN2CC(C(=O)NCC(=O)Nc3ccc(F)c(F)c3)CC2=O)cc1OC (stereo not given)	-12.4%	-10.7%
O=C(CCN1C(=O)C2CC=CCC2C1=O)N1CCN(c2ccccn2)CC1 (stereo not given)	2.5%	-15.3%

Entries of single compounds as entered above:
Cc1ccc(CNC(=O)Cn2c(-c3cccs3)cc3cc(Cl)ccc32)cc1 is listed as Vaccinia Venus: -15.2%; Vaccinia mCherry: -24.7%
CC(C)(C)c1ccc(C(=O)NC2(C(F)(F)F)C(=O)Nc3c2c(=O)[nH]c(=O)n3-c2ccccc2)cc1 (stereo not given) is listed as Vaccinia Venus: -1.2%; Vaccinia mCherry: -4.9%

Screening results (PubChem)
